Six1-Eya2 blk = inhibitors of human Six1/Eya2 interaction. Q15475+O00167. AlphaScreen GST-Six1/His-Eya2 binding, biochemical; active compounds read low; control for the full effect not named in the record. activity change, % (concentration not given with the values). 360,000 compounds, 0.56% hits; in the data active = activity change below about -65%; inconclusive = about -30% to -65%; inactive = above about -30%; further: on the % scale 0 is the no-effect control and ±100 the full control effect
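Compounds are tested against tagged Six1 and Eya2 proteins bridged by glutathione donor and nickel acceptor beads; after a one-hour incubation at 37 °C without light, AlphaScreen emission is recorded.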
TRPML1 agonist = human mucolipin-1 channel agonism | TRPML1-expressing cells, Ca2+ dye fluorescence, FDSS; host cell line not named in the record; reference of the full effect not given here | activation, % (test concentration not listed) | 410,000 compounds, 0.12% hits; in the data active = activation above about 50%; inconclusive = about 30% to 50%; inactive = below about 30%; further: 0% is about no effect; the text of the record puts the active cut at 80%
Target sequence (Q9GZU1 whole entry, looked up): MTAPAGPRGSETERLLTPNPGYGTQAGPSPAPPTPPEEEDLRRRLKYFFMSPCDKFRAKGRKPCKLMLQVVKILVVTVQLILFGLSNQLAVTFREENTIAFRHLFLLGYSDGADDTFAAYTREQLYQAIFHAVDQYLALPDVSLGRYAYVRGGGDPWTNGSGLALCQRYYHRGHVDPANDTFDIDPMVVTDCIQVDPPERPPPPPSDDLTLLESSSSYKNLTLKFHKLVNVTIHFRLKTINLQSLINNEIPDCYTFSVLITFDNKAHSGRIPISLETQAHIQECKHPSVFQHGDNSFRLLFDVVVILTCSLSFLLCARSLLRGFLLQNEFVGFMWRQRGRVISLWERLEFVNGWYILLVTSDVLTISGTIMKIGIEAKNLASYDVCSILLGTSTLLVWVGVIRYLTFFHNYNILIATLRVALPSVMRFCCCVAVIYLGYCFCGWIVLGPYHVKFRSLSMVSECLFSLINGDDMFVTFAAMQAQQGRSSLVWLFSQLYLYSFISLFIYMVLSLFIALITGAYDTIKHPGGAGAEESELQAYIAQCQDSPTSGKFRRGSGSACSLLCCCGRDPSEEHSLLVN
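Tetracycline-induced TRPML1-DL cells are seeded and incubated overnight before loading with a no-wash Ca2+ dye and quencher. Agonist activity is taken from the 110 s fluorescence read following compound pin-transfer on an FDSS, before EC80 54-4 challenge.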
TRPML1 inh = blocks the human TRPML1 channel; Q9GZU1; TRPML1-inducible cells, Ca2+ dye fluorescence, FDSS; active compounds read low; inhibition of EC80 agonist-evoked calcium signal; activity change, negative = inhibition, % (concentration not given with the values); 390,000 compounds, 0.02% hits; in the data active means activity change below about -50%; inconclusive means about -30% to -50%; inactive means above about -30%;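 further: stimulus is agonist 54-4 at its EC80 concentration; on the % scale 0 is the no-effect control and ±100 the full control effect; the text of the record puts the active cut at -80%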
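TRPML1-DL cells, Tet-induced overnight (~16 h, 37 °C) at 1,500 cells/well, were loaded with Ca8 no-wash dye plus quencher for 45-90 min at room temperature. Compounds were pinned during FDSS kinetic reading; agonist 54-4 at EC80 (4 uM final) then added.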
D2 potentiator = human D2 receptor positive allosteric modulation; potentiation, % (test concentration not listed); DiscoveRx D2 beta-arrestin cells, luminescence, 90 min; 100% = 57 uM dopamine signal; AID 624464; P14416; 360,000 compounds, 0.23% hits; active = potentiation of 50% or more; inconclusive = 30% to 50%; inactive = 30% or less;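 further: compound concentration not given in the record; tested on top of an EC20 dose of dopamine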
Target sequence (P14416 whole entry, looked up): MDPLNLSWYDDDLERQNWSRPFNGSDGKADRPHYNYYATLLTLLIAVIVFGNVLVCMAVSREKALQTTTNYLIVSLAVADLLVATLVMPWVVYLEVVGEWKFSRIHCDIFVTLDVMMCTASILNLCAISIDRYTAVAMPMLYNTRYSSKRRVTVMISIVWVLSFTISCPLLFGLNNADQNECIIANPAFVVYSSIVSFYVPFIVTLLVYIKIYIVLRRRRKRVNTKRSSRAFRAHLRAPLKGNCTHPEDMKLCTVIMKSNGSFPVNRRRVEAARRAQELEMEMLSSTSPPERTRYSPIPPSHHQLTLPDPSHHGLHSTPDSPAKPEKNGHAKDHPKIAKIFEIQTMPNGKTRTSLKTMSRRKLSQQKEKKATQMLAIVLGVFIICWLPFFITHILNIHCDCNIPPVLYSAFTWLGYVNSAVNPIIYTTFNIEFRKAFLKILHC
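D2 cells co-treated with compound plus 50 nM dopamine (EC20) for 90 min at 37 deg C to detect potentiation. Beta-arrestin recruitment was read as enzyme-fragment luminescence after 1 h at ambient temperature. Full response was set by 57 uM dopamine.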
D2 ag = agonists of human D2 dopamine receptor (beta-arrestin); P14416; DiscoveRx PathHunter D2 beta-arrestin, luminescence, 90 min; 100% = 57 uM dopamine signal; activation, % (test concentration not listed); 360,000 compounds, 0.084% hits; AID 624465; in the data active = activation above about 40%; inconclusive = about 15% to 40%; inactive = below about 15%; further: compound concentration not given in the record; the text of the record calls up to 30% inactive
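DiscoveRx PathHunter D2 beta-arrestin cells (2,100/well) attached overnight, then compound-stimulated 90 min at 37 C in HBSS/10 mM HEPES/0.1% Tween-20 buffer; beta-galactosidase complementation read by luminescence after 1 h at ambient temperature. Dopamine 57 uM final (EC100) as control.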
PINK1 expr mod = modulators of PINK1 expression. PINK1 immunofluorescence, high-content cytometry, 24 h. Potency, µM (series often up to 76.6 µM), for inactives: top-dose activation (PINK1 increase), actives largely listed as activators. 410,000 compounds, 0.2% hits; active = well fitted activation curve with a large enough effect; inconclusive = small, poorly fitted or top-dose-only effect; inactive = flat fitted curve, though single readings scatter; cell line not stated here;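 further: potency means the concentration at half of the fitted maximal effect; % of control where 0% means no effect; nearly all actives have a fitted effect of over 65% in size; a mitochondrial uncoupler was the plate control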
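Stable cell line treated 24 h with compounds at 5 concentrations (CCCP controls), then fixed and immunostained for PINK1 plus nuclear and cell stains; PINK1 immunofluorescence quantified by laser-scanning microplate cytometry.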
An asterisk follows results filed as active; u = inconclusive; x = no result given; [ ] = dose if it differs, or a comment.

SMILES	Six1-Eya2 blk	TRPML1 agonist	TRPML1 inh	D2 potentiator	D2 ag	PINK1 expr mod
CCCCOc1ccc(C(=O)Nc2ccc3c(c2)C(=O)NC3=O)cc1	2	-0.1	15	-6	-0.5	2.0%
COc1ccc(-c2nnc(SCC(=O)N3CCOCC3)o2)cc1OC	-3	0.1	-11	-3	-2.0	0.6%
CCOC(=O)C/C(C)=N/NC(=O)CNc1cccc(Cl)c1C	3	-0.2	-5	0	0.8	0.3%
COc1ccc(OC)c(/C=N/N=C2\SCC(=O)N2Cc2ccco2)c1	-23	3.9	-19	u	2.8	15%
O=c1c2c(c(-c3ccccc3)nn1Cc1ccccc1)CCCC2	-2	x	x	2	-2.8	-0.3%
COC(=O)Cc1c[nH]c2ccc(OCC(O)CNC(C)C)cc12 (stereo unspecified)	-2	0.8	26	-10	-0.8	1.7%[38.3 µM]
COc1ccccc1N(CC(=O)NC1CCCCC1)C(=O)CCC(=O)Nc1nccs1	6	-0.7	6	-2	-0.2	1.7%
CC(C)(C)OC(=O)N1Cc2cc3ccccc3nc2C1	-2	-0.5	-3	-6	-1.0	0.7%
Cc1cc(C(=O)OCC(=O)N2CCc3ccccc32)c(C)o1	-3	-0.5	-6	-7	-1.3	1.7%
CCc1ccc(S(=O)(=O)NCc2csc(C)n2)s1	6	0.1	10	0	1.9	x
Cc1ccc(C(=O)Nc2ccc(Cl)cn2)cc1S(=O)(=O)N1CCOCC1	-28	-0.4	1	-10	-3.0	-1.7%
O=C(CN1C(=O)NC(c2ccccc2)(c2ccccc2)C1=O)Nc1cccnc1Cl	1	0.0	-7	2	0.1	0.1%
Cc1cc(C)n(C(CC(=O)N2CCc3ccccc3C2)C(=O)O)n1 (stereo unspecified)	0	0.0	-11	-4	-0.7	1.3%[38.3 µM]
O=S(=O)(c1ccc(Br)cc1)c1nc(-c2ccccc2)oc1NCc1cccnc1	9	3.1	40	-9	-3.6	2.6%
O=C(NC(=S)Nc1cc([N+](=O)[O-])ccc1O)c1ccc2c(c1)OCO2	-10	0.8	4	-20	-7.1	0.9%
COc1ccc(-c2[nH]ncc2CN2CCN(c3ccc(F)cc3)CC2)cc1	-2	0.6	-3	-28	-4.4	1.0%
CCOC(=O)N1CCN(C(=O)C2CCN(S(=O)(=O)N(CC)CC)CC2)CC1	2	0.3	27	-1	-1.5	u
Cc1ccc(S(=O)(=O)N2CCN(C(=O)CN3C(=O)c4ccc([N+](=O)[O-])cc4C3=O)CC2)c(C)c1	8	0.0	-10	1	7.5	0.2%
CSc1nnc(NC(=O)C2CCCCC2)s1	-2	-0.8	-3	-4	-5.3	2.9%
CC1(C)Cc2c(C#N)c(N3CCOCC3)nc(-c3ccccc3)c2CO1	28	1.3	5	-8	-1.0	0.1%
CCCCc1cc(=O)oc2cc(OCC(=O)NC3CCN(Cc4ccccc4)CC3)ccc12	2	-0.6	-6	-13	-0.2	0.6%
CCOc1ccc(OCC(=O)N(C)c2c(N)n(Cc3ccccc3)c(=O)[nH]c2=O)cc1	2	-0.5	-10	-20	-4.6	0.8%
CCOCc1nnc(NC(=O)c2cc(OC)c(OC)cc2[N+](=O)[O-])s1	-3	0.4	-5	-15	-4.3	0.1%
Cc1cc(NC(=O)COC(=O)COc2cccc3c2OC(C)(C)C3)no1	1	1.8	-4	0	-0.6	-4.1%
Fc1ccccc1N1CCN(c2ncc3c(n2)CCN(Cc2ccc(Br)s2)C3)CC1	x	-0.2	-3	x	x	0.8%

A different layout for part of the listing above:
Under each structure: Six1-Eya2 blk, TRPML1 agonist, TRPML1 inh, D2 potentiator, D2 ag, PINK1 expr mod
> CCCCOc1ccc(C(=O)Nc2ccc3c(c2)C(=O)NC3=O)cc1
→ 2, -0.1, 15, -6, -0.5, 2.0%
> COc1ccc(-c2nnc(SCC(=O)N3CCOCC3)o2)cc1OC
→ -3, 0.1, -11, -3, -2.0, 0.6%
> CCOC(=O)C/C(C)=N/NC(=O)CNc1cccc(Cl)c1C
→ 3, -0.2, -5, 0, 0.8, 0.3%
> COc1ccc(OC)c(/C=N/N=C2\SCC(=O)N2Cc2ccco2)c1
→ -23, 3.9, -19, u, 2.8, 15%
> O=c1c2c(c(-c3ccccc3)nn1Cc1ccccc1)CCCC2
→ -2, x, x, 2, -2.8, -0.3%
> COC(=O)Cc1c[nH]c2ccc(OCC(O)CNC(C)C)cc12 (stereo unspecified)
→ -2, 0.8, 26, -10, -0.8, 1.7%[38.3 µM]
> COc1ccccc1N(CC(=O)NC1CCCCC1)C(=O)CCC(=O)Nc1nccs1
→ 6, -0.7, 6, -2, -0.2, 1.7%
> CC(C)(C)OC(=O)N1Cc2cc3ccccc3nc2C1
→ -2, -0.5, -3, -6, -1.0, 0.7%
> Cc1cc(C(=O)OCC(=O)N2CCc3ccccc32)c(C)o1
→ -3, -0.5, -6, -7, -1.3, 1.7%
> CCc1ccc(S(=O)(=O)NCc2csc(C)n2)s1
→ 6, 0.1, 10, 0, 1.9, x
> Cc1ccc(C(=O)Nc2ccc(Cl)cn2)cc1S(=O)(=O)N1CCOCC1
→ -28, -0.4, 1, -10, -3.0, -1.7%

(cont.)
SMILES	Six1-Eya2 blk	TRPML1 agonist	TRPML1 inh	D2 potentiator	D2 ag	PINK1 expr mod
CCOC(=O)c1ccc(Nc2ccc(-c3ccc(OC)c(OC)c3)nn2)cc1	-1	0.4	-1	4	2.6	15%[38.3 µM]
Cc1ccc(C)c(N=Cc2c(O)c3ccccc3oc2=O)c1	-6	0.5	4	-1	6.2	0.1%
Cc1ccc(C(=O)N(Cc2ccc(N(C)C)cc2)Cc2ccco2)cc1	x	0.3	-16	x	x	0.5%
COC(=O)c1ccc(COC(=O)CNC(=O)c2ccc(C)s2)cc1	0	0.0	11	-2	-2.1	-0.3%
O=C(Cc1nc(-c2ccc([N+](=O)[O-])cc2)cs1)Nc1ccccc1	-5	0.6	17	5	-2.2	-2.4%[38.3 µM]
O=C(Cc1ccc2c(c1)CCCC2)Nc1ccccc1Br	3	2.6	-6	1	0.6	x
CCCn1c(SCC(=O)NC(C)(C)C)nnc1-c1ccco1	4	-0.6	-16	-4	-0.5	-0.4%
Cc1cc(NC(=O)Cn2cnc3c(nnn3-c3cccc(F)c3)c2=O)no1	-3	-0.4	-2	-2	0.3	3.2%
O=C(CCn1cnc2ccccc2c1=O)Nc1ccc(Cl)c(Cl)c1	1	-0.8	2	-3	-3.2	5.4%
Cc1ccc(OCCNC(=O)c2ccc3c(c2)OCO3)cc1	2	0.5	0	-11	2.9	-0.8%
CCC(C)NC(=O)c1ccc(NC(=O)CC2SC(N3CCCCC3)=NC2=O)cc1 (stereo unspecified)	-7	-0.2	0	-3	-3.1	0.3%
Oc1c(N=NC(=S)Nc2ccccc2F)c2ccccc2n1Cc1ccc(F)cc1	-11	-0.3	36	-21	-0.6	3.3%
Cc1cc(C)c2nc(NC(=O)c3ccc4c(c3)OCO4)sc2c1	18	-0.2	4	-9	-2.3	17%[38.3 µM]
C/C(=N\NC(=O)c1ccccc1Br)c1ccc(N2CCOCC2)cc1	-1	-0.1	-2	-5	-2.3	-0.5%
COc1ccc(CCNC(=O)C2CCN(C(=O)c3ccc(F)cc3)CC2)cc1	4	0.0	-12	-4	-3.3	-0.6%
O=C(CSc1ccc(-c2ccco2)nn1)c1cccc([N+](=O)[O-])c1	-29	0.6	10	27	5.5	u
COc1ccc(NC(=O)N2CCCc3cccc(C)c32)cc1	-8	-0.9	-1	-17	-0.1	0.3%
CN(C)CCNc1cc(-c2ccncc2)nc2ccccc12	14	0.3	2	-9	-3.8	-0.9%
N#C/C(=C\c1ccccc1)C(=O)NCCN1CCOCC1	9	-0.6	37	-7	-4.6	3.8%
O=S(=O)(NCc1cc(-c2ccccc2Cl)no1)c1ccccc1	3	2.3	1	-13	1.5	-1.3%
CC(Sc1nncs1)C(=O)NC1CCCCC1C (stereo unspecified)	1	0.9	23	-14	-2.3	1.0%
Cc1ccccc1C(=O)Nc1sc2c(c1C(=O)O)CCC(C(C)(C)C)C2 (stereo unspecified)	x	-0.6	11	x	x	0.6%
CCn1nnnc1SCC(=O)N1CCCCC1	4	0.8	5	-1	-2.7	0.0%
Cc1c(NC(=S)NC(=O)c2sc3ccccc3c2Cl)cccc1C(=O)O	-17	1.9	-8	27	3.0	0.0%
COc1ccccc1-c1ccc(NC2CCCC2)nn1	0	1.2	31	-16	-4.4	-0.9%

Remaining list, next part
SMILES	Six1-Eya2 blk	TRPML1 agonist	TRPML1 inh	D2 potentiator	D2 ag	PINK1 expr mod
O=C1c2cccc3c([N+](=O)[O-])ccc(c23)C(=O)N1c1ccccn1	-11	1.2	17	u	u	-1.5%
CCN(CC)c1nc(SCCOC(=O)Nc2ccccc2)nc(N(CC)CC)n1	12	-0.5	-8	-9	-2.1	5.2%[38.3 µM]
Cc1noc(C)c1NC(=O)Nc1cccc2c1O[C@H](CN(C)S(=O)(=O)c1ccc(F)cc1)[C@@H](C)CN([C@H](C)CO)C2=O	-9	-0.1	3	-6	-1.3	-0.2%
COCCSc1nnc(NS(=O)(=O)c2ccc(C)cc2)s1	0	2.3	-9	-7	-0.8	2.5%
CC1(C)S/C(=N/N=C/c2cccs2)NC1=O	-10	-0.3	-6	-11	-3.8	-1.6%
Cc1cc(=O)[nH]c(NN=C2CCC(C(C)(C)C)CC2)n1 (stereo unspecified)	-10	2.0	-10	-9	-2.1	2.1%
O=c1[nH]c(=S)c2ncn(-c3ccccc3)c2[nH]1	-10	-0.9	-1	-23	-5.8	1.4%
CC1=C2C(CCS2(=O)=O)CC2(C1)C(=O)OC(C)(C)OC2=O (stereo unspecified)	7	0.4	18	-7	1.5	-0.3%
COc1ccc(N2CCN(C(=O)c3cc(=O)c4cc(C)ccc4o3)CC2)cc1	0	-1.0	-14	-7	-5.4	-0.7%
Nc1cccnc1Sc1cccc(Cl)c1	-5	1.0	2	2	-0.3	-0.5%
CC1(NC(=S)NCCCCCCNC(=S)NC2(C)CCS(=O)(=O)C2)CCS(=O)(=O)C1 (stereo unspecified)	5	-0.2	17	-2	7.9	-1.2%
CC1CC1C(=O)OCC(=O)Nc1cc(S(=O)(=O)N2CCCCC2)ccc1Cl (stereo unspecified)	-1	1.1	16	-9	-2.8	1.3%
O=C(CCNC(=O)Cn1ccc2ccccc2c1=O)NCCC1=CCCCC1	4	0.9	9	3	-8.2	0.7%
COc1ccc(C(C)(O)c2nc(-c3cccc(C(F)(F)F)c3)cs2)cc1 (stereo unspecified)	3	2.2	x	-14	-2.0	-0.8%
COc1ccc(NC(=O)Nc2nnc(Cc3ccccc3)s2)cc1	u	x	x	-1	1.1	7.7%
Cn1c(CCN2CCN(c3ccccc3)CC2)nc2cc(NC(=O)c3ccco3)ccc21	-29	0.6	10	-35	2.1	2.7%
COc1ccccc1OCc1nnc(SCC(=O)Nc2ccc(C)cc2)n1C	-4	-0.1	36	-5	-0.9	0.9%
CC(C)n1nnnc1C1c2ccccc2C(=O)N1CCc1ccccc1F (stereo unspecified)	16	-1.2	x	x	x	0.2%
CCOC(=O)N1CCN(C(=O)CN2C(=O)c3ccccc3S2(=O)=O)CC1	-1	0.1	-10	2	-2.1	-1.4%

Screening results from PubChem.
